RecA splice inh = blocks M. tuberculosis RecA intein splicing. cell-free RecA intein splicing, fluorescence. 290,000 compounds, 0.75% hits. P9WHJ3. AID 2221. inhibition, %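 (about 9 µM by stock and volumes)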; in the data active = inhibition above about 30%; inconclusive = no clear call, values can overlap the other calls;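 also: 0% = vehicle wells and 100% = reference inhibitor control wells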
Target sequence (P9WHJ3 whole entry, looked up, canonical isoform): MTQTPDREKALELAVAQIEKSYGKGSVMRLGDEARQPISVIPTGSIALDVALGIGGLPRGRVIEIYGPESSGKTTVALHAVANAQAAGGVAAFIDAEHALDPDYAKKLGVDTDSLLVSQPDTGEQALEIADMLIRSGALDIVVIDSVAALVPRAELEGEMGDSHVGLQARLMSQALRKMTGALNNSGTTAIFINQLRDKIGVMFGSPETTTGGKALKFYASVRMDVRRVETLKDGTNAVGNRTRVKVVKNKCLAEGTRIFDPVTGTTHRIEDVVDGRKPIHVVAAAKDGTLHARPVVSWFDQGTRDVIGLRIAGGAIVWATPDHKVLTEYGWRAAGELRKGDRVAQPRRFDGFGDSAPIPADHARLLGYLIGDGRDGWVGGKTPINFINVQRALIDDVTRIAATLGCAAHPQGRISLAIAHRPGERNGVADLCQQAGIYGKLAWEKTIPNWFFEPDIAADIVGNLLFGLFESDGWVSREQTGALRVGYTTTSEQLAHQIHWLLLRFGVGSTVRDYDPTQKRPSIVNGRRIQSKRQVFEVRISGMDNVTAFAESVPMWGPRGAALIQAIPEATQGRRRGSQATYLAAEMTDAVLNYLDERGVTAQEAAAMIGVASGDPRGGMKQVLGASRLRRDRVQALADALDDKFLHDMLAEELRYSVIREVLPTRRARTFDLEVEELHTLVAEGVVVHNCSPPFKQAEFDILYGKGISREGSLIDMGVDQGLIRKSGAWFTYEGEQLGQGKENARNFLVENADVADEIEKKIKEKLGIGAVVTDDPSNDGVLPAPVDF
Arbovirus inh = antivirals against arbovirus infection | arbovirus infection cell-based antiviral screen | inhibition, % at 10 µM | 200,000 compounds, 0.37% hits;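 active = inhibition from about 30%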;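 also: bluetongue infection of BSR cells; cell survival read as ATP light after 72 h; 0% = infected wells without compound and 100% = uninfected wells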
YopH PTP inh = inhibitors of Yersinia enterocolitica YopH tyrosine phosphatase | fluorescence Ex485/Em525 | inhibition, %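 (about 10 µM by stock and volumes)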 | 140,000 compounds, 0.16% hits | AID 898;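 active = inhibition of 50% or more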;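 also: controls were vehicle for no effect and minimum signal wells for full effect; inactives centre near -20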
Mtb betalactam = beta-lactam sensitization of Mtb H37Rv; M. tuberculosis H37Rv growth with meropenem, percent inhibition; hits of this screen are not shown here; inhibition, % at 25 µM; 330,000 compounds, 0.27% hits;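 active = about 74% or more and at least 40 points above the plate without the antibiotic, then above 30% in a dose series; inconclusive = first-round hits that could not be retested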;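 also: growth measured after seven days incubation then overnight dye step; 0% = bacteria only wells and 100% = bacteria with antibiotic; twin plates without the antibiotic show which effects depend on it; some results filed as inactive read as strong as hits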
Mtb H37Rv = M. tuberculosis H37Rv growth inhibitors, H37Rv strain (AID 1626); one-dose inhibition, % at 10 µM; IC50 in µM for titrated hits; M. tuberculosis H37Rv growth inhibition; higher % means a stronger effect; 220,000 compounds, 0.95% hits;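 active = confirmed in a dose series; inconclusive = inhibition above 80% but not taken into the dose series; inactive = below 80% or under 30% at every dose of the series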;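 also: bacteria incubated seven days before Alamar blue readout; 0% = bacteria only wells and 100% = bacteria with antibiotic wells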
Arbovirus inh repeat = recorded beside Arbovirus inh, whose call it bears; inhibition, %; measured here: 10K subset replicate screen; many hits read low in the repeat;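 first of two repeat runs on a subset; 0% = infected and 100% = uninfected wells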
An asterisk follows results filed as active; ? = inconclusive; . = no result given. Some of the compounds tested; count on the stated rates, not on these rows.

SMILES	RecA splice inh	Arbovirus inh	YopH PTP inh	Mtb betalactam	Mtb H37Rv	others
COC(=O)[C@@]1(Cc2ccc(OC)cc2)[C@@H]2C(=CC(=O)[C@H]2CC(=O)C(=O)N(C)C)CN1C(=O)c1ccccc1	.	-36	-38	-5	-1%
CCCCNC(=O)NCCN1CCOCC1	-4.5	.	.	-2	-4%
Cc1ccc(-c2c(C)c(-c3ccc(F)cc3)nc(N)c2C#N)o1	-22	1	-22	3	1%
Cc1nc(SCC(=O)Nc2ccc(N3CCOCC3)cc2)nc(C)c1C	-2.3	3	-43	-22	-7%
CCn1c(SCCC(=O)O)nnc1-c1cccnc1	-0.5	-1	-41	?	9%
NNC(=O)CSc1nc(-c2ccccc2)nc2c1CCCC2	1.2	-4	.	-7	5%
COCCNC(=O)C1CCCN(c2nn3c(=O)cc(C)nc3s2)C1 (stereo not drawn)	.	-1	-34	-9	52%
CCOC(=O)c1c(NC(=O)CSc2nnnn2-c2ccccc2)sc2c1CC(C)(C)NC2(C)C	2.0	.	.	65	.
CCOC(=O)c1cccc(-[n+]2c(-c3ccccc3)cc(-c3ccccc3)cc2-c2ccccc2)c1	6.9	.	.	100	.
Cc1ccccc1OCC(=O)Nc1ccc2oc(=O)ccc2c1	3.4	2	.	7	11%
CC[n+]1c(S(=O)(=O)[O-])ccc2ccc(C)cc21	-0.1	3	8	-1	-11%
COCCCNC(=O)c1ccccc1NS(C)(=O)=O	2.0	5	-22	-4	0%
CC(C)[C@H]1CN=C2N(CCNC(=O)CCC3CCCCC3)[C@H](Cc3ccc(O)cc3)CN21	-1.6	4	.	51	0%
O=C(Nc1cccc(C(F)(F)F)c1)c1ccc(N2CCNCC2)c([N+](=O)[O-])c1	0.4	-29	.	-6	0%
COc1ccc(-c2cc3c(=O)n(CC(=O)Nc4ccc(C(C)=O)cc4)ncn3n2)cc1	1.3	.	.	-1	.
O=C(COC(=O)c1ccc2c(c1Cl)C(=O)c1ccccc1C2=O)NC1CC1	41*	-10	-22	60	63%
CCOC(=O)c1c(C)[nH]c(C)c1C(=O)CSc1nc2ccccc2n1CCC#N	2.4	-7	-23	-1	-2%
COc1ccc(C(=O)CSc2nnc(COc3ccc(C#N)cc3)n2-c2ccccc2)cc1	-0.7	-7	-14	-1	-6%
COc1ccc(NC(=O)C2CCN(S(=O)(=O)c3ccc(Br)s3)CC2)cc1OC	-1.1	-3	-28	6	-4%
c1ccc(Cn2c(NCc3ccccn3)nc3ccccc32)cc1	2.0	1	.	-9	5%
CSc1nc(Oc2ccc3ccccc3c2)c2sccc2n1	0.8	4	-42	5	8%
O=C(NCc1ccc(N2CCCC2=O)cc1)c1cnccn1	2.7	2	-15	-7	-4%
O=C(COC(=O)CCC(=O)c1ccc(Cl)cc1)NCCc1ccccc1	-2.7	18	.	3	-6%
Cc1cc(=O)oc2c(CN3CCCCC3)c(O)c(Cl)cc12	-117	-4	15	0	-5%
Cc1cccc(N2CCN(C(=O)c3cc4c(=O)n(C)c5ccccc5c4n3C)CC2)c1C	-1.0	19	-21	5	-6%	Arbovirus inh repeat=7
COc1ccc(CNC(=O)C/C(C)=N/NC(=O)c2cnccn2)cc1	-3.6	-5	.	32	-6%
NNC(=O)c1cc(Cl)ccc1Cl	-3.1	-9	17	88	9%
CC(=O)Nc1ccc(NC(=O)CSc2ccc(-c3ccc(-n4ccnc4)cc3)nn2)cc1	-2.1	.	.	3	.
O=C(CSc1cccc[n+]1[O-])c1ccccc1Br	1.4	2	.	100	?
O=C(Nc1ccc(N2CCOCC2)cc1)C1(c2ccc(Cl)cc2)CCC1	0.2	-1	.	69	43%
COc1ccc(C(=O)N2CCC(n3nccc3NC(=O)C3CC3)CC2)c(OC)c1OC	-0.2	.	.	5	.
O=C(CN1CCN(c2ccccn2)CC1)NCCc1ccccc1	0.3	3	-4	2	5%
CC(C)COC(=O)n1c(=O)oc2cc(S(=O)(=O)N3CCCCC3)ccc21	7.2	10	-46	0	-3%
O=C(NCc1ccc2c(c1)OCO2)Nc1cccc2ccccc12	0.8	.	.	41	10%
Cn1c(SCC(=O)N2CCOCC2)nnc1-c1ccncc1	-1.3	.	.	2	.
CCc1nnc(NC(=O)CSc2nnc(CSc3nc(C)cc(C)n3)o2)s1	-3.6	.	-43	6	-1%
CCOc1ccc(NC(=O)CC2C(=O)N(c3ccccc3)C(=O)N2CCc2cccs2)cc1 (stereo not drawn)	2.8	-3	-2	?	2%
Cc1ccc(C(C)C)c(OCCN2C(=O)NC(C)(C)C2=O)c1	0.7	2	-14	-15	-5%
O=C(Cc1cccs1)Nc1ccccc1NC(=O)Cc1cccs1	1.1	-4	-27	-13	-3%	Arbovirus inh repeat=-3
Cc1ccccc1OCCc1c(C)[nH]c(=S)[nH]c1=O	0.9	-5	.	3	2%
CCCOC(=O)C1=C(C)NC2=C(C(=O)CC(C)(C)C2)C1c1ccc(N(C)C)cc1 (stereo not drawn)	0.6	9	-13	1	-5%	Arbovirus inh repeat=-2
Cc1cccc(N2CCN(C(=O)C3CCN(S(=O)(=O)c4cccc5nsnc45)CC3)CC2C)c1 (stereo not drawn)	0.6	5	-6	-4	3%
Cc1cc2oc3c(c(=O)c2cc1C)C(c1ccc(F)cc1)N(CCCN1CCOCC1)C3=O (stereo not drawn)	2.4	3	-4	5	4%	Arbovirus inh repeat=1
Cc1ccc(NCC(=O)c2ccc(C)cc2)cc1	-0.4	.	.	3	.
O=c1oc2ccccc2c2c1C(c1ccc(Cl)cc1)Nc1ccc3ccccc3c1-2 (stereo not drawn)	-4.8	-9	-13	62	65%
O=C(/C=C/Nc1ccc(F)cc1)c1ccc(Oc2ncccn2)cc1	0.5	-11	-29	-18	.
O=C(OCC(=O)N1CCc2ccccc2C1)c1cccnc1Cl	0.7	5	.	-4	-2%
COc1ccc(S(=O)(=O)N2CCN(C(=O)Cc3cccs3)CC2)cc1	2.7	9	-1	-4	-2%
CCOC(=O)c1c(-c2ccc(-c3ccccc3)cc2)csc1NC(=O)C1C2CCC(O2)C1C(=O)O (stereo not drawn)	18	-2	-30	28	-4%
CCN(CC1CCCO1)C(=O)CCc1nnc(Cc2ccc3c(c2)OCO3)o1 (stereo not drawn)	.	6	.	1	8%
Next compounds follow.
SMILES	RecA splice inh	Arbovirus inh	YopH PTP inh	Mtb betalactam	Mtb H37Rv	others
Cc1c(CNC2CCC(C)CC2)c(C(=O)O)c(C)n1Cc1ccccc1 (stereo not drawn)	-1.5	1	-47	-7	-5%
O=C(CN1CCN(C(c2ccccc2)c2ccccc2)CC1)NC(=O)NCc1ccco1	3.4	-4	3	63	3%
CC(=O)SC(C)CC(=O)Nc1ccccc1 (stereo not drawn)	0.3	2	-26	43	-8%
O=C(CSc1nc(C(F)(F)F)cc(=O)[nH]1)N1CCC(Cc2ccccc2)CC1	2.4	.	.	-5	.
CCN(CC)C(=O)CSc1nc(-c2cccs2)cc(-c2cccs2)c1C#N	1.9	-15	-19	8	3%
Cc1ccccc1CNC(=O)Cc1cccs1	-1.2	-1	.	-3	6%
O=C(Nc1ccc2nc(-c3cccs3)c(-c3cccs3)nc2c1)NC1CC1	-3.1	-6	3	91	7%
COc1cc(NS(=O)(=O)c2ccc(Nc3nc(-c4cccc([N+](=O)[O-])c4)cs3)cc2)nc(OC)n1	11	20	-35	0	-6%
CC(=O)CSc1nc(N(C)C)nc(N(C)C)n1	-1.3	-1	.	1	2%
CCOC(=O)C1CCN(C(=O)C2CCN(S(=O)(=O)CC)CC2)CC1	0.9	-1	-17	5	-12%
COc1ccc(-c2nnc(SCC(=O)N3CCN(c4ccccc4)CC3)o2)cc1OC	2.4	-1	-8	6	.	Arbovirus inh repeat=-3
CC(=O)Nc1cccc(Cl)c1C(=O)O	0.3	4	-24	-8	5%
COc1ccc(-n2cnnc2SCC(=O)Nc2nc(C)c(Cl)cc2Cl)cc1	-1.4	3	-17	-17	-3%
Cc1nc2ccc(S(=O)(=O)Nc3cc(-c4nc5cccnc5s4)ccc3C)cc2s1	-0.7	26	-7	2	5%
CC(C)CN(C(=O)COC(=O)c1ccccc1Sc1ccccc1C#N)C1CCS(=O)(=O)C1 (stereo not drawn)	-2.1	7	-35	5	3%
COc1ccc(/C=N/Nc2cc(C)nc(N3CCOCC3)n2)cc1	-1.2	.	.	5	2%
CCOc1ccc(C2c3[nH]c4ccccc4c3CCN2CCCn2cccn2)cc1 (stereo not drawn)	-3.2	-9	.	-1	11%
COc1ccc(CN2CCNC(=O)C2CC(=O)O)c(OC)c1 (stereo not drawn)	-1.2	4	-45	6	-5%	Arbovirus inh repeat=7
O=C(OCc1ccccc1Cl)c1cc([N+](=O)[O-])ccc1N1CCOCC1	2.0	.	.	6	.
CCOc1ccc(S(=O)(=O)NCc2ccc(Cl)cc2)c2cccnc12	2.4	4	-9	-3	16%
COc1ccc(OC)c(S(=O)(=O)NC(C)CCc2ccccc2)c1 (stereo not drawn)	1.1	.	.	2	.
CN1CCCCc2c1nc1ccccc1c2N (tested in a mixture with another compound)	2.3	-1	-15	-3	5%
CCOc1cc(CN2CCN(c3cccc(C(F)(F)F)c3)CC2)ccc1OC	3.5	-4	-8	-4	13%
Cc1nn(C)cc1/C=N/O	-1.4	8	-19	-5	-4%
CCCCC(=O)Nc1ccccc1N1CCN(c2ccccc2)CC1	5.2	-10	.	3	2%
NC(=O)c1ncc(C(F)(F)F)cc1Oc1ccc(C(F)(F)F)cc1	0.3	-11	-15	-5	-4%
Cc1nn(C)cc1/C=N/NC(=O)c1ccc2c(c1)OCO2	0.8	3	-8	-5	-3%
Cc1ccc(C(=O)NC2CCN(CC(=O)NCc3cccs3)CC2)cc1	-3.2	2	.	-7	-2%
O=C(Nc1ccc(S(=O)(=O)Nc2ncccn2)cc1)c1ccccc1	0.4	.	.	5	.
COc1ccc(NC(=S)Nc2ccc(S(N)(=O)=O)cc2)c(OC)c1	-0.8	-1	.	-3	0%

A draw from above in order of count of non-hydrogen atoms, rising.
SMILES	RecA splice inh	Arbovirus inh	YopH PTP inh	Mtb betalactam	Mtb H37Rv	others
COc1ccc(NC(=S)Nc2ccc(S(N)(=O)=O)cc2)c(OC)c1	-0.8	-1	.	-3	0%
O=C(Nc1ccc(S(=O)(=O)Nc2ncccn2)cc1)c1ccccc1	0.4	.	.	5	.
CCOc1cc(CN2CCN(c3cccc(C(F)(F)F)c3)CC2)ccc1OC	3.5	-4	-8	-4	13%

Going on with the list:
SMILES	RecA splice inh	Arbovirus inh	YopH PTP inh	Mtb betalactam	Mtb H37Rv	others
CN1CCN(c2ccccc2/C=N/NC(=O)c2cccnc2)CC1	.	.	.	2	-4%
Cc1nc2ccc(Cl)cn2c1P(=S)(N1CCOCC1)N1CCOCC1	1.3	-2	-39	-21	-10%	Arbovirus inh repeat=0
CCOP(=O)(OCC)c1nc(-c2cccc([N+](=O)[O-])c2)oc1N1CCCCC1	-0.7	2	.	17	4%
Clc1ccc(C2=C3CCCCn4c(-c5ccccc5)c[n+](c43)C2)cc1	33*	-20	-7	76	8%
CCCNC(=O)c1nc2ncc(Br)cn2n1	-0.9	1	-27	3	-4%
O=C(COC(=O)CC12CC3CC(CC(C3)C1)C2)Nc1cccnc1Cl	2.6	-3	.	-1	-2%
CCC(NC(=O)COc1ccc([N+](=O)[O-])cc1)c1ccccc1 (stereo not drawn)	1.3	-2	.	10	1%
COc1ccc(-c2noc(-c3ccc(C)cc3)n2)cc1	3.5	4	-12	84	13%
Cn1c(=O)c2c(nc(N3CCNCC3)n2Cc2cccc3ccccc23)n(C)c1=O	0.1	-10	-21	-1	7%
O=C(O)c1ccccc1OCCOc1ccccc1C(=O)O	0.6	7	-28	-11	-7%

Looked up by structure from above (six):
SMILES	RecA splice inh	Arbovirus inh	YopH PTP inh	Mtb betalactam	Mtb H37Rv	others
O=C(O)c1ccccc1OCCOc1ccccc1C(=O)O	0.6	7	-28	-11	-7%
COc1ccc(-c2noc(-c3ccc(C)cc3)n2)cc1	3.5	4	-12	84	13%
CCOP(=O)(OCC)c1nc(-c2cccc([N+](=O)[O-])c2)oc1N1CCCCC1	-0.7	2	.	17	4%
Cc1nc2ccc(Cl)cn2c1P(=S)(N1CCOCC1)N1CCOCC1	1.3	-2	-39	-21	-10%	Arbovirus inh repeat=0
CCCNC(=O)c1nc2ncc(Br)cn2n1	-0.9	1	-27	3	-4%
CCC(NC(=O)COc1ccc([N+](=O)[O-])cc1)c1ccccc1 (stereo not drawn)	1.3	-2	.	10	1%

(more compounds)
SMILES	RecA splice inh	Arbovirus inh	YopH PTP inh	Mtb betalactam	Mtb H37Rv	others
CSc1ncc(C(=O)Nc2cccc(Cl)c2C)c(C)n1	-0.5	.	.	98	.
O=C(c1ccc(N2C(=O)CCC2=O)cc1)N1CCN(c2ccccc2)CC1	-1.1	6	-38	-7	2%
COc1ccc(/C(C)=N/N2CCOCC2)c(O)c1	-0.7	.	.	-2	-8%
O=C(C1CCN(S(=O)(=O)c2ccc(Cl)cc2)CC1)N1CCOCC1	2.7	10	2	-1	-6%
